Screening results deposited in PubChem BioAssay by several laboratories.
B2AR ag: beta2AR agonists driving receptor internalization, primary screen, cell-based, FAP fluorogen, flow cytometry; Beta-2 adrenergic receptor (Homo sapiens), P07550; 0.43% of 340,000 active; Am2.2-beta2AR cells; reference of the scale not given here; response, % (no concentration beside the values);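 active = response above a set limit, near 3 SD of response in nonfluorescent compounds, cut at about 42% in these data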;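 note: stock transfer was 100 nL into about 11 µL; a reference agonist was the positive control; negative values mostly stem from fluorescent compounds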
rRNA inh HTS: reduced GFP signal of wild-type E. coli, primary screen, bacterial rRNA inhibitor project, GFP/RFP fluorescence, OD600, single point; E. coli WT GFP vs humanized-ribosome RFP mutants, 24 h; stronger effect = lower value; DMSO median 0, no signal -100; GFP signal change (wild-type ribosome), % (test concentration not listed); 1.6% of 350,000 active; AID 720706, 2013;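 active = significant combined selectivity score with lowered wild-type GFP, culture density cut under 30%, mutant RFP and density less affected; inactive = any of these conditions unmet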; note: one replicate is shown; some compounds called inactive have numbers as strong as hits
E coli growth: E. coli growth inhibition, primary screen, OD600; Escherichia coli growth, 23 h; stronger effect = lower value; OD600 absorbance (concentration not given with the values); 0.21% of 330,000 active; AID 1053175, 2014;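 active = OD600 absorbance below the run mean of sample wells minus 3.6 SD, in any replicate, cut at about 0.56 in these data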;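 note: stock transfer was 300 nL into about 60 µL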
ALR inh: inhibitors of human ALR sulfhydryl oxidase, primary screen, biochemical, H2O2 detection, HRP-luminol luminescence, single point; FAD-linked sulfhydryl oxidase ALR (Homo sapiens), P55789; AID 485317, 2010; purified ALR, DTT oxidation; 3.8% of 290,000 active; inhibition, % (no concentration beside the values);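 active = mean and each replicate at 75% or more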;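 note: stock transfer was 7.5 nL into about 7.5 µL; 0% = neutral wells and 100% = wells with inactivated enzyme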
Target sequence (P55789 whole entry, looked up): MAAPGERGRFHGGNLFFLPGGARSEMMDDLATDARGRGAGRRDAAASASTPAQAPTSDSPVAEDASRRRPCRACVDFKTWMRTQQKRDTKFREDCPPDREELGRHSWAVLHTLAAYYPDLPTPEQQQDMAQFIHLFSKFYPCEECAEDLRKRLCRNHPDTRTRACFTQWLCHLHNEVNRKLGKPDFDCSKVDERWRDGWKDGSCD
UCH37 DUB inh: inhibitors of human UCH37 deubiquitinase, primary screen, biochemical, Ub-AMC cleavage, fluorescence | Ubiquitin carboxyl-terminal hydrolase isozyme L5 (Homo sapiens), Q9Y5K5 | purified proteasome/UCH37 | inhibition, % (no concentration beside the values) | 0.33% of 330,000 active;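 active = mean of two replicates above 20%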;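 note: 0% = compound-free wells with enzyme and 100% = wells lacking proteasome; stock transfer was 100 nL into about 20 µL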
Target sequence (Q9Y5K5 whole entry, looked up): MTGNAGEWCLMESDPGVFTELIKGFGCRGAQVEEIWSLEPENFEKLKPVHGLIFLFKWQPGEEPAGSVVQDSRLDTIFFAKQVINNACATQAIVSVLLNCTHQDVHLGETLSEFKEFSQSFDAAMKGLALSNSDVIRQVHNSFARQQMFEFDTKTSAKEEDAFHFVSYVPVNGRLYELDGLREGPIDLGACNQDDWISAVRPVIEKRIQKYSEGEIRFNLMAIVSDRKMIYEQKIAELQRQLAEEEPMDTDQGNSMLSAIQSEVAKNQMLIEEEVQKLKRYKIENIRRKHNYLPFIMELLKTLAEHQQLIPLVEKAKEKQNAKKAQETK
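System: Proteasome-associated human UCH37 deubiquitinase; Input: 0.15 nM proteasome in added enzyme buffer; Also added: Ub-AMC substrate from 1 µM stock; Incubation: 30 min compound-proteasome preincubation then 25 min substrate reaction, room temperature; Detection: fluorescence, ex 355 nm, em 460 nm; Read-out: % inhibition of Ub-AMC cleavage fluorescence; Benchmarks: no-proteasome and no-compound wells.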
FGF22 binding: binders of human FGF22 protein, primary screen, FGF22 synaptogenesis inhibitor project, biophysical, thermal shift, single point. calls only at 9.99 µM. Fibroblast growth factor 22 (Homo sapiens), Q9HCT0. 1.5% of 340,000 active. recombinant FGF22 thermal shift, SYPRO orange fluorescence; percent of sucrose octasulfate shift, DMSO zero;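 active = melting point raised past a set limit in the mean and every replicate; three in four hits are not shown here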
Target sequence (Q9HCT0 whole entry, looked up): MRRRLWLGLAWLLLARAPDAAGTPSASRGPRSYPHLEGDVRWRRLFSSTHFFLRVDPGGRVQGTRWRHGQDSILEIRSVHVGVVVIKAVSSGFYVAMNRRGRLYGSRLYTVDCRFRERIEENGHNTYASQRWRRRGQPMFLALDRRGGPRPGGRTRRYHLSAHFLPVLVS
HNF4A DNA FP: change in binding of human HNF4A to DNA, primary screen, biochemical, fluorescence polarization, FITC-DNA | 1 h | activity change, % at 10 µM | Hepatocyte nuclear factor 4-alpha (Homo sapiens), P41235 | 0.3% of 360,000 active; in the data active = activity change above about 30%, passing the limit was not always enough;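 note: controls were the assay level and a saturating level of protein; the project sought stronger binding though the title names inhibitors; some compounds called inactive have numbers as strong as hits; positive values seem to mean higher polarization but the record does not say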
rRNA inh HTS OD600: also measured in rRNA inh HTS; calls as there; OD600 change, %; measured here: OD600 growth;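 optical density of the mix in the first replicate; 0 = DMSO median and -100 = no signal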
rRNA inh HTS RFP: recorded beside rRNA inh HTS, whose call it bears; RFP signal change, %; measured here: RFP humanized mutant strains;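 first replicate; 0 = DMSO median and -100 = no signal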
* = called active by the depositor; i = inactive; nt = no result given.

SMILES | B2AR ag | rRNA inh HTS | rRNA inh HTS OD600 | rRNA inh HTS RFP | E coli growth | ALR inh | UCH37 DUB inh | FGF22 binding | HNF4A DNA FP
Cc1ccccc1NC(=O)NC1CCS(=O)(=O)C1 (stereo unspecified) | 1 | 4 | -1 | -2.2 | 0.69 | -50 | 3.5 | i | 5.6
C(#Cc1ccc(C#CCN2CCOCC2)cc1)CN1CCOCC1 | -2 | nt | nt | nt | 0.66 | 6 | -0.3 | nt | -0.4
CSc1nnc(NC(=O)c2cc3ccccc3oc2=O)s1 | -25 | 4 | 12 | 0.3 | 0.73 | -4 | 5.9 | i | 1.3
NC(=O)CN1C(=O)/C(=c2\sc3nc(=O)c(Cc4ccccc4)nn3c2=O)c2ccccc21 | 0 | 12 | 11 | 0.6 | nt | 14 | nt | i | 4.5
CC1CCN(c2ccc([N+](=O)[O-])cn2)CC1 | 19 | nt | nt | nt | 0.68 | -5 | 2.7 | nt | -2.5
Cc1ccsc1C(=O)N1CC=C(c2ccccc2)CC1 | 9 | 0 | 2 | 0.8 | 0.69 | 3 | 3.3 | i | -2.1
CCN(CC)c1ccc(C2NCC(c3ccc([N+](=O)[O-])cc3)O2)cc1 (stereo unspecified) | 3 | nt | nt | nt | 0.69 | -4 | 9.5 | nt | -0.8
CCOc1ccc(CCNC(=O)COC(=O)c2ccncc2)cc1OCC | 0 | 6 | 7 | -1.3 | 0.68 | nt | 1.9 | i | 1.1
CC(=O)c1ccc(N(CC(=O)NC2CCCCC2)C(=O)CNC(=O)c2cccs2)cc1 | -1 | 1 | 4 | -0.8 | 0.7 | nt | -0.1 | i | -1.9
COc1cc(/C=C/CNC[C@H]2O[C@@H](n3cnc(C(N)=O)n3)[C@H](O)[C@@H]2O)ccc1O | -2 | 1 | 10 | -2.5 | nt | nt | nt | i | -0.2
Cc1ccc(S(=O)(=O)N2CCN(C(=O)c3ccc([N+](=O)[O-])cc3)C2)cc1 | 3 | 8 | 7 | -0.3 | 0.7 | -22 | -1.2 | i | -3.6
CCN1C(=O)C(CC(=O)Nc2ccc(OC)cc2)N(Cc2ccc(OC)c(OC)c2)C1=S (stereo unspecified) | 9 | 16 | 13 | 1.2 | 0.65 | -13 | 5.6 | nt | 4.1
CC(=O)OCc1ccccc1Sc1ccccc1C(=O)NCc1ccccc1 | -1 | -30 | -28 | -4.5 | 0.65 | -2 | 5.1 | i | 3.8
COc1ccc(C(C)=O)cc1CC1(C)C(=O)Nc2ccc(-c3cccc(C(F)(F)F)c3)cc21 (stereo unspecified) | nt | 6 | 7 | 3.8 | nt | nt | nt | i | -1.4
CN(CC(=O)Nc1ccccc1Cl)C(=O)c1cc(-c2cccs2)nn1-c1ccccc1 | 14 | 2 | 7 | -0.3 | 0.66 | 4 | 1.3 | i | -0.3
COc1ccc(Cl)cc1NC(=O)CN(C)C(=O)Cn1c(=O)oc2ccccc21 | 8 | 0 | -6 | 3.3 | 0.67 | 30 | 2.3 | i | 0.8
CCOC(=O)N1CCN(Cc2nc(Cc3cccc(C(F)(F)F)c3)no2)CC1 | 4 | 3 | 7 | 4.8 | 0.64 | -1 | 2.1 | i | 5.2
C/C(=N\Nc1nc(N)cc(Cl)n1)c1cccc([N+](=O)[O-])c1 | 5 | nt | nt | nt | nt | 19 | nt | nt | 0.6
CCOC(=O)c1c(NC(=O)CN2C(=O)NC3(CCCCC3C)C2=O)sc(C(=O)N(C)C)c1C (stereo unspecified) | 2 | 3 | 4 | -0.7 | 0.61 | 3 | 3.5 | i | 3.1
CN(C)c1ccc(NC(=O)c2ccc3c(c2)nnn3C)cc1 | -2 | 5 | 8 | -2.1 | 0.67 | 9 | 4.4 | i | -1.1
O=c1c2ccccc2nc(-c2ccc([N+](=O)[O-])cc2)n1O | 3 | 5 | 2 | -1.4 | 0.66 | 3 | 4.2 | i | 2.0
Cc1ccc(C(=O)OCn2nnc3ccccc3c2=O)cc1[N+](=O)[O-] | 1 | 14 | 14 | 2.0 | 0.69 | -3 | 1.9 | i | -0.7
COc1ccc2c(=O)c(C(=O)NCCc3ccccc3)c[nH]c2c1 | -7 | -27* | -21* | -1.3* | 0.67 | 5 | -0.8 | i | 4.1
CC1CCN(C(=S)NCCc2ccccc2)CC1 | -6 | nt | nt | nt | 0.71 | 1 | 0.0 | nt | -3.0
O=S(=O)(c1ccc(Nc2ccc3c(c2)OCO3)nc1)N1CCOCC1 | 4 | nt | nt | nt | 0.62 | -70 | 2.4 | nt | -6.0
CCOc1ccccc1NC(=S)NCc1cccn1C | 0 | 6 | 1 | 5.2 | 0.69 | 2 | 0.9 | nt | -3.0
COc1ccc(NC(=O)C[C@H]2C(=O)N(Cc3ccccc3)C[C@@H]2CSC)cc1 | nt | -2 | -8 | -7.2 | nt | nt | nt | i | 3.4
Cc1ccccc1N1CCN(C2CCCN(C(=O)c3ccc(Cl)s3)C2)CC1 (stereo unspecified) | 12 | -31 | -34 | -4.0 | 0.69 | 6 | 2.6 | i | 6.3
CN(C(=O)COC(=O)/C=C/c1ccc2ccccc2n1)C1CCS(=O)(=O)C1 (stereo unspecified) | -5 | 4 | 1 | -1.1 | 0.67 | 8 | -1.7 | i | 4.1
CC1=CC(C2CC(=O)N(c3ccc(C)cc3)C2=O)CC2C(=O)N(c3ccc(C)cc3)C(=O)C12 (stereo unspecified) | -8 | 3 | -2 | 0.6 | 0.69 | nt | 3.8 | i | 2.3
O=C(NCCc1ccccc1)C(=O)NCC1OCCCN1S(=O)(=O)c1ccc(F)cc1 (stereo unspecified) | -6 | 3 | 8 | 4.4 | 0.71 | -4 | 0.8 | i | 5.7
Cc1nn(C)c(Cl)c1CN1CCCC(C(=O)Nc2ccc(-c3cscn3)cc2)C1 (stereo unspecified) | 4 | 3 | 7 | -0.7 | 0.65 | -7 | -0.5 | i | 6.2
CS(=O)(=O)N1CCc2cc(S(=O)(=O)N3CCN(Cc4ccc5c(c4)OCO5)CC3)ccc21 | 1 | nt | nt | nt | 0.67 | -9 | -3.5 | nt | 0.9
Nc1nc(N)c2cc(S(=O)(=O)c3cccc(C(F)(F)F)c3)ccc2n1 | nt | -53 | -68 | -8.6 | nt | nt | nt | i | -4.4
O=C1NC(=O)/C(=C\c2ccc(OCc3ccccc3)cc2)S1 | 6 | 7 | 7 | 3.0 | 0.71 | 23 | 5.3 | i | -0.5
O=C(CSCCN1C(=O)c2ccccc2C1=O)Nc1ccc2ccccc2c1 | 2 | nt | nt | nt | 0.72 | 8 | 5.2 | nt | 1.7
CC(C)CC(=O)c1c[nH]c(C(=O)NCc2ccc(F)cc2)c1 | -2 | 5 | 15 | -0.3 | 0.7 | -16 | 3.4 | i | 5.0
Cc1ccc2c(CSc3nc4nc(C)cc(C)n4n3)cc(=O)oc2c1 | -15 | nt | nt | nt | 0.67 | -4 | -0.3 | nt | -1.3
CCCCn1nnnc1C1(C)CCC(=O)N1CCOc1ccccc1 (stereo unspecified) | nt | 8 | 16 | 8.5 | nt | nt | nt | i | 1.7
O=C(O)Cc1ccc(NS(=O)(=O)c2ccccc2Cl)cc1 | -4 | 11 | 9 | 1.8 | 0.62 | -3 | 0.4 | i | 3.0

Just HNF4A DNA FP, for 3 of the compounds above:
Compound,HNF4A DNA FP
Cc1ccc(C(=O)OCn2nnc3ccccc3c2=O)cc1[N+](=O)[O-],-0.7
COc1ccc2c(=O)c(C(=O)NCCc3ccccc3)c[nH]c2c1,4.1
CC1CCN(C(=S)NCCc2ccccc2)CC1,-3.0

More results follow:
SMILES | B2AR ag | rRNA inh HTS | rRNA inh HTS OD600 | rRNA inh HTS RFP | E coli growth | ALR inh | UCH37 DUB inh | FGF22 binding | HNF4A DNA FP
CCn1c(SCC(=O)NC2(C#N)CCCCC2)nc2ccccc2c1=O | 1 | -5 | -6 | 1.0 | 0.69 | nt | 2.1 | i | 0.2
COc1ccc(S(=O)(=O)Nc2ncccn2)cc1 | 5 | 7 | -3 | -2.4 | 0.64 | 4 | 4.3 | i | 1.5
C=CCn1c(O)c(C=Nc2ccc(CN3CCCCC3)cc2)c(=O)[nH]c1=S | -2 | 10 | 13 | -2.3 | 0.69 | -18 | 2.9 | i | -1.8
Cc1noc(C)c1C(=O)N1CCN(c2ccccc2O)CC1 | -2 | 16 | 10 | 5.9 | 0.7 | 99* | 2.2 | i | 5.1
COC(=O)c1cc(-c2ccccc2)n(CC(=O)O)c1C | -3 | nt | nt | nt | 0.74 | -4 | 5.5 | nt | -2.1
CCCCCCCNC(=O)C1(CC2CC(c3cccc(Br)c3)=NO2)CCN(C(=O)OC(C)(C)C)CC1 (stereo unspecified) | -2 | -2 | 10 | 0.0 | 0.71 | nt | 1.5 | i | -0.2
Cc1ccc(-c2nc(C(Cl)Cl)c3ccccc3n2)cc1 | -3 | 10 | 5 | -1.4 | 0.73 | -3 | 3.3 | i | -4.8
COc1ccc2c(c1)[C@H]1[C@H](CO2)[C@H](c2ccccc2)[C@]2(C)C(=O)N[C@H](C)C(=O)N12 | 2 | 10 | 10 | 3.9 | nt | -5 | 1.7 | i | -2.5
COc1cccc(CC(NC(C)=O)C(=O)NC2CCN(c3c(Cc4ccccc4)c(C)nc4ncnn34)CC2)c1OC (stereo unspecified) | -16 | nt | nt | nt | 0.69 | -6 | 1.5 | nt | 2.2
Cc1ccc(Cc2c(-c3ccc(C)cc3)nc3cc(C)ccn23)cc1 | nt | 4 | -21 | 5.3 | nt | nt | nt | i | 3.6
COc1cccc(NC(=O)c2ccc3c(c2)CCN3S(C)(=O)=O)c1 | 13 | -10 | 1 | -3.1 | 0.7 | -8 | 6.7 | nt | 0.0
CCC(C)(C)NC(=O)CN(C(=O)C(=O)Nc1ccc2c(c1)OCCO2)C1CC1 | 4 | 4 | 9 | -0.1 | 0.7 | -13 | 0.1 | i | 0.3
COc1ccccc1NC(=O)CN(Cc1ccco1)C(=O)c1ccc(=O)[nH]c1 | 3 | 7 | 8 | 1.3 | 0.69 | -10 | 3.1 | i | -0.1
CCCC(=O)Nc1nc2c(s1)COc1ccccc1-2 | 0 | -7 | -4 | -2.6 | 0.65 | 1 | 1.1 | i | -4.0
CCOc1c(CNCc2ccc(C(=O)O)cc2)cccc1OC | 0 | 10 | 12 | 2.5 | 0.72 | -6 | 2.9 | i | 0.7
CN(C(=O)COC(=O)c1c2c(nc3ccccc13)/C(=C/c1cccc([N+](=O)[O-])c1)CCC2)C1CCS(=O)(=O)C1 (stereo unspecified) | 14 | nt | nt | nt | 0.72 | -13 | 4.4 | i | 5.6
COC(=O)c1cc(-c2cccc([N+](=O)[O-])c2)c2c(=O)[nH]c(=O)n(C)c2n1 | 4 | 8 | 12 | -3.5 | 0.69 | 0 | 6.3 | i | 3.2

An excerpt from the list above, as a working copy:
SMILES | B2AR ag | rRNA inh HTS | rRNA inh HTS OD600 | rRNA inh HTS RFP | E coli growth | ALR inh | UCH37 DUB inh | FGF22 binding | HNF4A DNA FP
COc1cc(/C=C/CNC[C@H]2O[C@@H](n3cnc(C(N)=O)n3)[C@H](O)[C@@H]2O)ccc1O | -2 | 1 | 10 | -2.5 | nt | nt | nt | i | -0.2
Cc1ccc(S(=O)(=O)N2CCN(C(=O)c3ccc([N+](=O)[O-])cc3)C2)cc1 | 3 | 8 | 7 | -0.3 | 0.7 | -22 | -1.2 | i | -3.6

Not all compounds are listed. The share of hits here may be higher or lower than overall.
